# rRNA inh HTS = selective bacterial rRNA inhibition in E. coli | AID 720706 | actives 1.6% (n = 350,000) | GFP signal change (wild-type ribosome), % (test concentration not listed) | E. coli WT GFP vs humanized-ribosome RFP mutants, fluorescence, 24 h; active compounds read low; DMSO median 0, no signal -100;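 active means significant combined selectivity score with lowered wild-type GFP, culture density cut under 30%, mutant RFP and density less affected; inactive means any of these conditions unmet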; further: one replicate is shown; some compounds called inactive have numbers as strong as hits
# FGF22 binding = shifts melting point of recombinant human FGF22 | recombinant FGF22 thermal shift, SYPRO orange fluorescence; percent of sucrose octasulfate shift, DMSO zero | calls only at 9.99 µM | actives 1.5% (n = 340,000) | Q9HCT0;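 active means melting point raised past a set limit in the mean and every replicate; three in four hits are not shown here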
# Target sequence (Q9HCT0 whole entry, looked up): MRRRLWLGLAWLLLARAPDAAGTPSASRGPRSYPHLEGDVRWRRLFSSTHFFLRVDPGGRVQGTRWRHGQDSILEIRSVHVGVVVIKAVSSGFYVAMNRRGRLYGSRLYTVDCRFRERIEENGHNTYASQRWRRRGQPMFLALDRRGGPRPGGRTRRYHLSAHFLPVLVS
# rRNA inh HTS OD600 = also measured in rRNA inh HTS; calls as there; OD600 change, %; measured here: OD600 growth;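 optical density of the mix in the first replicate; 0 = DMSO median and -100 = no signal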
# rRNA inh HTS RFP = also measured in rRNA inh HTS; calls as there; RFP signal change, %; measured here: RFP humanized mutant strains;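 first replicate; 0 = DMSO median and -100 = no signal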
# Active calls of the source: *; i = inactive; & = joins results of further samples. An excerpt, so the mix of outcomes need not match the whole.
1) O=C(Cc1ccncc1)Nc1ccc2c(c1)[C@@H]1C[C@H](CC(=O)N3CCOCC3)O[C@H](CO)[C@@H]1O2
2) C=CCN=C1NC(c2cccc(F)c2)C(C(=O)OC)=C(C)N1Cc1cccc(C(F)(F)F)c1 (configuration not stated)
3) O=C(Nc1ccc2c(c1)[C@@H]1C[C@@H](CC(=O)N3CCOCC3)O[C@@H](CO)[C@@H]1O2)C1CCC1
4) COc1ccc(-c2cn(CC[C@@H]3CC[C@@H](NS(=O)(=O)c4ccccc4C)[C@@H](CO)O3)nn2)cc1
5) O=C(NCCc1ccncc1)[C@@H]1[C@@H](CO)[C@@H]2Cn3c(ccc(C4=CCCCC4)c3=O)[C@H]1N2CC1CC1
assay / entry	1	2	3	4	5
rRNA inh HTS	0	-49	0	-2	0
rRNA inh HTS OD600	3	-80	3	-10	-3
rRNA inh HTS RFP	-1.5	-18	2.5	2.5	-1.3
FGF22 binding	i	i	i	i	i

# Four of the entries above in order of the rRNA inh HTS RFP value, rising.
2) C=CCN=C1NC(c2cccc(F)c2)C(C(=O)OC)=C(C)N1Cc1cccc(C(F)(F)F)c1 (configuration not stated)
1) O=C(Cc1ccncc1)Nc1ccc2c(c1)[C@@H]1C[C@H](CC(=O)N3CCOCC3)O[C@H](CO)[C@@H]1O2
5) O=C(NCCc1ccncc1)[C@@H]1[C@@H](CO)[C@@H]2Cn3c(ccc(C4=CCCCC4)c3=O)[C@H]1N2CC1CC1
3) O=C(Nc1ccc2c(c1)[C@@H]1C[C@@H](CC(=O)N3CCOCC3)O[C@@H](CO)[C@@H]1O2)C1CCC1
assay / entry	2	1	5	3
rRNA inh HTS	-49	0	0	0
rRNA inh HTS OD600	-80	3	-3	3
rRNA inh HTS RFP	-18	-1.5	-1.3	2.5
FGF22 binding	i	i	i	i

# Additional compounds follow:
6) COc1ccc(S(=O)(=O)N(C)C[C@@H]2OCCCC[C@H](C)Oc3ccc(NC(=O)Nc4ccccc4)cc3C(=O)N([C@H](C)CO)C[C@@H]2C)cc1
7) COCC(=O)Nc1ccc2c(c1)[C@H]1C[C@H](CC(=O)N3CCCCC3)O[C@H](CO)[C@H]1O2
8) CN1CCCCC(NC(=O)COCc2ccccc2)C1=O (configuration not stated)
9) O=C(Cc1c[nH]c2ccccc12)Nc1ccc(Nc2cccnc2)c(-c2ccc(F)c(F)c2)c1
10) COc1ccc(NC(=O)Nc2ccc3c(c2)C(=O)N([C@@H](C)CO)C[C@@H](C)[C@H](CN(C)S(=O)(=O)c2cn(C)cn2)OCCCC[C@@H](C)O3)cc1
assay / entry	6	7	8	9	10
rRNA inh HTS	0	3	-5	-32	-2
rRNA inh HTS OD600	6	10	0	-52	-2
rRNA inh HTS RFP	-0.8	-0.1	0.0	-6.8	0.9
FGF22 binding	i	i	i	i	i

11) COC(=O)C[C@H]1CC[C@@H]2[C@H](COc3ccc(NC(=O)c4cc(F)cc(F)c4)cc3C(=O)N2C)O1
12) COc1cccc(NC(=O)Nc2ccc3c(c2)C(=O)N(C)[C@H]2CC[C@H](CC(=O)O)O[C@@H]2CO3)c1
13) Cc1noc(C)c1NC(=O)Nc1ccc2c(c1)C(=O)N([C@@H](C)CO)C[C@H](C)[C@@H](CN(C)Cc1ccc3c(c1)OCO3)OCCCC[C@@H](C)O2
14) C[C@@H]1CN([C@@H](C)CO)C(=O)c2cc(NS(=O)(=O)c3ccc(Cl)cc3)ccc2O[C@@H](C)CCCCO[C@H]1CN(C)S(=O)(=O)c1ccc(Cl)cc1
15) O=C(N[C@@H](Cc1cccnc1)C(=O)N1CCC[C@H]1C(=O)NCCc1ccccc1Cl)c1ccc(Cl)cc1Cl
assay / entry	11	12	13	14	15
rRNA inh HTS	-2	3	1	-2	-22
rRNA inh HTS OD600	-5	11	1	8	-18
rRNA inh HTS RFP	-2.3	0.6	-1.4	-5.7	6.7
FGF22 binding	i	i	i	i	i

16) C[C@@H]1CCCCO[C@H](CN(C)C(=O)Nc2ccc3c(c2)OCO3)[C@H](C)CN([C@H](C)CO)C(=O)c2cc(NC(=O)NC3CCCCC3)ccc2O1
17) C[C@@H]1CCCCO[C@H](CN(C)S(=O)(=O)c2cn(C)cn2)[C@H](C)CN([C@@H](C)CO)C(=O)c2cc(NC(=O)Nc3ccc(C(F)(F)F)cc3)ccc2O1
18) COc1cccc(NC(=O)N2[C@@H]3CNC[C@H]2C3c2ccc(-c3ccncc3)cc2)c1 (some centres not stated)
19) C#CCOCCOCCOCCNc1nc(N2CCN(C(=O)[C@H](C(C)C)n3cc(CCO)nn3)CC2)nc(N2CCN(C(=O)[C@H](Cc3ccc(O)cc3)n3cc(CCO)nn3)CC2)n1
20) CCCCCN(C(=O)Cc1c(C)n(CCCCC)c2ccccc12)c1ccc(Oc2cccnc2)c(C)c1
assay / entry	16	17	18	19	20
rRNA inh HTS	1	-1	0&5	14	3
rRNA inh HTS OD600	0	-4	0&10	19	-1
rRNA inh HTS RFP	2.1	-0.2	-4.3&1.6	0.7	-3.2
FGF22 binding	i	i	i	i	i

21) CC(C)C[C@H](NC(=O)N1CCOCC1)C(=O)N1CCC[C@H]1C(=O)NCc1ccccc1
22) CN(C)C(=O)c1cccc(-c2ccc(C3[C@@H]4CN(Cc5ccccc5F)C[C@H]3N4)cc2)c1 (some centres not stated)
23) CNC(=O)C[C@H]1CC[C@H]2[C@@H](COc3ccc(NC(=O)c4cccc(OC)c4)cc3C(=O)N2C)O1
24) CCCCc1c(-c2ccccc2OC)ncn1Cc1ccc([N+](=O)[O-])cc1
25) C[C@H]1CCCCO[C@@H](CN(C)CC2CCCCC2)[C@@H](C)CN([C@@H](C)CO)C(=O)c2cc(NS(=O)(=O)c3ccc(Cl)cc3)ccc2O1
assay / entry	21	22	23	24	25
rRNA inh HTS	0	-9&-4	-1	-11	-31
rRNA inh HTS OD600	4	-12&-12	1	-6	-54
rRNA inh HTS RFP	1.3	0.2&0.1	-1.5	4.0	3.6
FGF22 binding	i	i	i	i	i

26) COc1ccc(NC(=O)N(C)C[C@H]2OCCCC[C@H](C)Oc3ccc(NS(=O)(=O)c4ccc(OC)cc4)cc3C(=O)N([C@@H](C)CO)C[C@H]2C)cc1
27) C[C@@H]1CCCCO[C@@H](CN(C)S(=O)(=O)c2cccs2)[C@H](C)CN([C@@H](C)CO)C(=O)c2cc(NC(=O)NC3CCCCC3)ccc2O1
28) Cc1noc(C)c1NC(=O)Nc1ccc2c(c1)CC(=O)N([C@H](C)CO)C[C@@H](C)[C@H](CN(C)C(=O)NC(C)C)O2
29) COC(=O)[C@]12CCCCC=C1N(CCc1ccc(OC)c(OC)c1)C(=O)[C@H](CC(=O)NCCc1ccccc1OC)C2
30) COc1ccc(S(=O)(=O)Nc2ccc3c(c2)CC(=O)N([C@H](C)CO)C[C@@H](C)[C@@H](CN(C)S(=O)(=O)c2ccc(F)cc2)O3)cc1
assay / entry	26	27	28	29	30
rRNA inh HTS	-4	0	4	-11	1
rRNA inh HTS OD600	0	1	9	-20	-1
rRNA inh HTS RFP	1.1	3.2	1.0	4.4	-0.1
FGF22 binding	i	i	i	i	i

31) COc1ccc2c3c([nH]c2c1)[C@H](CO)N(Cc1ccc(Cl)cc1)CC31CN(S(C)(=O)=O)C1
32) COc1ccccc1C(=O)N1CCN(C(=O)[C@H]2O[C@@H](n3cnc(C(N)=O)n3)[C@H](O)[C@@H]2O)CC1
33) C[C@H](CO)N1C[C@H](C)[C@H](CN(C)Cc2ccncc2)OCCCC[C@H](C)Oc2ccc(NC(=O)Nc3ccc(F)cc3)cc2C1=O
34) CC(=O)Nc1ccc2c(c1)C(=O)N(C)[C@H]1CC[C@@H](CC(=O)NC3CCCCC3)O[C@H]1CO2
35) COc1ccc(NC(=O)N(C)C[C@@H]2OCCCC[C@@H](C)Oc3ccc(NS(=O)(=O)c4c(C)noc4C)cc3C(=O)N([C@H](C)CO)C[C@@H]2C)cc1
assay / entry	31	32	33	34	35
rRNA inh HTS	-11	26	-7	3	2
rRNA inh HTS OD600	-11	10	-33	-4	-3
rRNA inh HTS RFP	1.7	0.9	35	-0.5	1.4
FGF22 binding	i	i	i	i	i

36) COCc1cc(N2CCNC[C@H]2C)ccc1N1CCN(Cc2ccccc2)[C@H](C)C1
37) C[C@H](O)[C@@H]1C(=O)N2CCc3c([nH]c4c(-c5ccccc5)cccc34)[C@@H]2C[C@@H]1N(C)C(=S)Nc1ccc(C#N)cc1
38) CN(C)CCCNC(=O)C[C@H]1CC[C@H]2[C@H](COc3ccc(NC(=O)c4ccc5c(c4)OCO5)cc3C(=O)N2C)O1
39) C[C@@H]1CN([C@H](C)CO)C(=O)c2cccc(NC(=O)Nc3ccc4c(c3)OCO4)c2O[C@H]1CN(C)C(=O)Nc1ccccc1
40) C[C@@H]1CN([C@@H](C)CO)S(=O)(=O)c2ccc(C#C[C@@H](C)O)cc2O[C@H]1CN(C)C(=O)c1ccncc1
assay / entry	36	37	38	39	40
rRNA inh HTS	23	-28	4	-2	5
rRNA inh HTS OD600	20	-61	15	5	10
rRNA inh HTS RFP	3.3	17	-0.6	-1.6	-2.9
FGF22 binding	i	i	i	i	i

41) C/C=C/c1ccc(C2[C@@H]3CN(C(=O)Nc4ccc5c(c4)OCO5)C[C@H]2N3)cc1 (some centres not stated)
42) C[C@@H]1CCCCO[C@H](CN(C)Cc2ccc3c(c2)OCO3)[C@@H](C)CN([C@H](C)CO)C(=O)c2cc(NC(=O)Cc3ccccc3)ccc2O1
43) C[C@@H]1C=CCCO[C@]12C(=O)N(CC1CC1)c1ccccc12
44) COc1ccc(S(=O)(=O)Nc2ccc3c(c2)C(=O)N([C@H](C)CO)C[C@@H](C)[C@H](CN(C)S(=O)(=O)c2ccc(OC)cc2)OCCCC[C@@H](C)O3)cc1
45) COCc1[nH]nc2c1C(c1ccc(C)cc1)NC2=O (configuration not stated)
assay / entry	41	42	43	44	45
rRNA inh HTS	4&-5	0	13	-1	24
rRNA inh HTS OD600	7&1	2	15	4	10
rRNA inh HTS RFP	0.1&-0.8	-1.0	2.1	-0.1	-0.8
FGF22 binding	i	i	i	i	i

46) COc1ccc(NC(=O)N(C)C[C@@H]2OCCCC[C@H](C)Oc3ccc(NC(=O)Nc4cccc5ccccc45)cc3C(=O)N([C@H](C)CO)C[C@@H]2C)cc1
47) COc1ccc2c3c([nH]c2c1)[C@H](CO)N(Cc1ccc(Cl)cc1)CC31CN(Cc2nccs2)C1
48) COC(=O)C1=C(C)N(Cc2ccc(Br)cc2)C(=S)NC1c1ccc(OC)cc1 (configuration not stated)
49) CN1CCN(C(=O)C[C@@H]2CC[C@@H]3[C@H](COC[C@@H](O)CN3CC3CCOCC3)O2)CC1
50) C[C@@H]1CCCCO[C@H](CN(C)CC2CCCCC2)[C@H](C)CN([C@H](C)CO)C(=O)c2cc(NS(=O)(=O)c3ccc(Cl)cc3)ccc2O1
assay / entry	46	47	48	49	50
rRNA inh HTS	-3	-2	19	5	-28
rRNA inh HTS OD600	2	-15	18	12	-36
rRNA inh HTS RFP	-2.7	8.4	9.1	-5.2	-4.2
FGF22 binding	i	i	i	i	i

51) COc1ccc(NC(=O)Nc2ccc3c(c2)C(=O)N([C@@H](C)CO)C[C@H](C)[C@H](CN(C)S(=O)(=O)c2cn(C)cn2)OCCCC[C@@H](C)O3)cc1
52) Cc1ccccc1-c1ccc(C2[C@@H]3CN(Cc4ccc5c(c4)OCO5)C[C@H]2N3)cc1 (some centres not stated)
53) Cc1noc(C)c1NC(=O)N(C)C[C@@H]1OCCCC[C@H](C)Oc2ccc(NS(C)(=O)=O)cc2C(=O)N([C@@H](C)CO)C[C@@H]1C
54) COc1ccc(NC(=O)C(c2cccc3ccccc23)n2c(=O)c(-c3ccco3)nc3ccccc32)cc1 (configuration not stated)
55) Cc1noc(C)c1S(=O)(=O)Nc1ccc2c(c1)C(=O)N([C@H](C)CO)C[C@H](C)[C@@H](CN(C)CC1CC1)OCCCC[C@@H](C)O2
assay / entry	51	52	53	54	55
rRNA inh HTS	2	-57&-55	3	10	5
rRNA inh HTS OD600	2	-76&-76	3	12	20
rRNA inh HTS RFP	1.1	-15&-18	-4.4	-0.5	-0.2
FGF22 binding	i	i	i	i	i

56) CCC(=O)N1CC2(CCN(C(=O)NC(C)C)CC2)c2c(n(C)c3cc(OC)ccc23)[C@H]1CO
57) C[C@@H]1CCCCO[C@H](CN(C)C(=O)Nc2ccc(C(F)(F)F)cc2)[C@H](C)CN([C@H](C)CO)C(=O)c2cc(NC(=O)Nc3ccc(C(F)(F)F)cc3)ccc2O1
58) Cc1cccc(-c2ccc([C@@H]3[C@H](CO)N4CCCCN(C(=O)c5ccncc5)C[C@@H]34)cc2)c1
59) C[C@@H]1CCCCO[C@@H](CN(C)S(C)(=O)=O)[C@H](C)CN([C@H](C)CO)C(=O)c2cc(NS(C)(=O)=O)ccc2O1
60) CCOC(=O)N(C)[C@H]1C[C@H]2c3[nH]c4c(-c5ccccc5)cccc4c3CCN2C(=O)[C@H]1[C@H](C)O
61) Cc1noc(C)c1NC(=O)Nc1ccc2c(c1)CC(=O)N([C@@H](C)CO)C[C@@H](C)[C@@H](CN(C)S(=O)(=O)c1cn(C)cn1)O2
62) C[C@@H]1CN([C@H](C)CO)C(=O)Cc2cc(NC(=O)CCC(F)(F)F)ccc2O[C@H]1CN(C)S(=O)(=O)c1cn(C)cn1
63) Cc1ccc(S(=O)(=O)N2CC[C@@H]3[C@H]2c2cc(C#Cc4cccnc4)ccc2N(C)[C@H]3CO)cc1
assay / entry	56	57	58	59	60	61	62	63
rRNA inh HTS	-1	2	4	1	-30	-2	3	-1
rRNA inh HTS OD600	6	8	1	7	-44	1	5	5
rRNA inh HTS RFP	-1.1	0.5	1.3	0.4	-5.9	-1.4	-1.7	0.2
FGF22 binding	i	i	i	i	i	i	i	i

# Bioassay records from PubChem BioAssay.
